# Screens: PubChem, Broad Institute
# Hedgehog inh: blocks Sonic Hedgehog signaling; Shh-LIGHT2 Gli-luciferase reporter, 30 h; inhibition, % (test concentration not listed); hit rate 2.1% among 22,000; AID 2313;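 active = replicate mean of 65% or more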;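 also: pathway switched on by Shh-conditioned medium diluted 1 in 25 in low serum; 100 nL library stock added to about 40 µL; 0% = median of neutral wells and 100% = positive control level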
# MITF inhib: inhibitors of MITF; inhibition, % (concentration not given with the values); hit rate 0.28% among 37,000; TRPM1 promoter luciferase, luminescence, 24 h; AID 2240;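 active = most replicates at 85% or more, or half of them and the mean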;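 also: human melanocyte line stably carrying TRPM1 promoter luciferase reporter; 0% = vehicle wells and 100% = a positive control; the first replicate is given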
# YB-1 expr inh: YB-1 expression inhibition; delta delta Cp (YB-1 minus CDIP) (concentration not given with the values); U2OS, qRT-PCR YB-1 vs CDIP delta delta Cp, 16 h; stronger effect = higher value; zero = DMSO, each unit about twofold; AID 434959; hit rate 0.37% among 30,000;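 active = delta delta Cp rounded down to an integer at or above 3, about 3 SD of DMSO wells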;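 also: higher means less YB-1 transcript or more CDIP transcript relative to DMSO; stock transfer was 100 nL into about 100 µL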
# PD-1 reverse act: activators reversing PD-1 mediated T-cell inhibition | primary human CD4 T cells, PD-L1 beads, CellTiter-Glo 96 h | activation, % (no concentration beside the values) | 29,000 tested, under 10 active | AID 2316;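 active = replicate mean of 50% or more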;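 also: 0% = median vehicle wells and 100% = positive control; 100 nL library stock added to about 50 µL; numbers are from one replicate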
# Numbers without * were called inactive; · = not tested or not shown. Only part of the results is shown; rates above refer to the full screens.
Compound,Hedgehog inh,MITF inhib,YB-1 expr inh,PD-1 reverse act
Cc1ccc(S(=O)(=O)N(C)C[C@@H]2Oc3ccc(NC(=O)Nc4c(C)noc4C)cc3C(=O)N([C@@H](C)CO)C[C@H]2C)cc1,4.0,-0.6,-0.251,0.6
Cc1ccc(S(=O)(=O)N2CCC(=O)c3ccccc32)cc1,-11.2,31.8,0.211,-2.1
C[C@@H]1CN([C@H](C)CO)C(=O)c2cc(NC(=O)Nc3ccccc3)ccc2O[C@@H]1CN(C)C(=O)Nc1cccc2ccccc12,9.8,-6.7,-0.757,-4.9
C[C@@H]1CN([C@@H](C)CO)C(=O)c2cccc(NS(=O)(=O)c3ccc(Cl)cc3)c2O[C@H]1CN(C)C(=O)Nc1ccccc1,-20.0,-10.9,-0.0954,2.0
C[C@@H]1CN([C@@H](C)CO)C(=O)c2cccc(NS(=O)(=O)c3ccc(F)cc3)c2O[C@H]1CN(C)S(=O)(=O)c1cccs1,4.5,0.4,-0.175,·
C[C@@H]1CN([C@@H](C)CO)C(=O)c2cccc(NS(=O)(=O)c3ccccc3)c2O[C@H]1CN(C)CC1CCCCC1,-30.7,6.2,-0.0519,2.5
Cc1ccc(S(=O)(=O)NCC(=O)Nc2ccccc2F)cc1,·,-3.6,·,4.0
CNC[C@@H]1Oc2ccc(NC(=O)Nc3ccc4c(c3)OCO4)cc2C(=O)N([C@@H](C)CO)C[C@@H]1C,7.2,-3.0,0.0033,0.6
C[C@@H]1CN([C@@H](C)CO)C(=O)c2cc(NS(=O)(=O)c3ccc(Cl)cc3)ccc2O[C@H]1CN(C)C(=O)Nc1ccc2c(c1)OCO2,-14.0,-3.0,-0.371,1.4
Cc1cc(C)n(CC(O)Cn2ccc3ccccc32)n1 (centres undefined),·,-21.2,·,1.4
Cc1ccc(S(=O)(=O)Nc2cccc3c2O[C@H](CN(C)S(=O)(=O)c2cn(C)cn2)[C@@H](C)CN([C@@H](C)CO)C3=O)cc1,-5.4,-0.9,0.225,2.9
COc1cccc2oc(-c3ccccc3)cc(=O)c12,-91.9,3.4,-0.493,-2.4
COc1ccc(Cl)cc1NC(=O)CN(Cc1ccccc1)S(C)(=O)=O,·,9.0,·,-0.8
CC(C)NC(=O)N(C)C[C@H]1Oc2ccc(NC(=O)Cc3cn(C)c4ccccc34)cc2C(=O)N([C@@H](C)CO)C[C@H]1C,-10.3,6.2,-0.981,-1.4
C[C@@H]1CN([C@@H](C)CO)C(=O)c2cccc(NC(=O)Nc3cccc4ccccc34)c2O[C@@H]1CN(C)CC1CC1,-14.1,0.2,0.192,1.2
C[C@@H]1CN([C@H](C)CO)C(=O)c2cccc(NC(=O)C3CC3)c2O[C@H]1CN(C)Cc1ccc(C(F)(F)F)cc1,25.6,9.0,-0.804,·
Cc1ccc(S(=O)(=O)N(C)C[C@@H]2Oc3ccc(NS(=O)(=O)c4ccccc4)cc3CC(=O)N([C@@H](C)CO)C[C@@H]2C)cc1,29.5,-2.5,-0.119,·
COc1ccc(S(=O)(=O)NCCCN2CCOCC2)c(C)c1C,·,-22.3,·,2.5
C[C@H]1CN([C@@H](C)CO)C(=O)Cc2cc(NS(=O)(=O)c3ccccc3)ccc2O[C@H]1CN(C)S(=O)(=O)c1ccc(F)cc1,-24.4,-10.3,-0.103,·
COc1cc(OC)c(NC(=O)Cc2ccccc2[N+](=O)[O-])cc1Cl,·,9.6,·,-1.0
C[C@@H]1CN([C@@H](C)CO)C(=O)Cc2cc(NC(=O)NC3CCCCC3)ccc2O[C@@H]1CN(C)Cc1ccc2c(c1)OCO2,18.5,-5.2,-0.197,-1.5
COc1cccc(-c2cc(C#N)c(NC(=O)c3cccc([N+](=O)[O-])c3)o2)c1,·,4.3,·,1.1
C[C@@H]1CCCCO[C@@H](CN(C)CC2CC2)[C@@H](C)CN([C@H](C)CO)C(=O)c2cc(NC(=O)NC3CCCCC3)ccc2O1,-4.9,0.7,-0.122,·
Cc1nnc(SCC(=O)NC2CCCCCC2)n1-c1ccccc1,·,-12.0,·,-0.4
C[C@@H]1CN([C@@H](C)CO)C(=O)c2cc(NC(=O)CCCN(C)C)ccc2O[C@@H]1CN(C)S(=O)(=O)c1ccccc1,-8.5,4.4,0.083,1.1
Cc1nn2c(CN(C(=O)c3ccco3)c3ccccc3)nnc2c2ccccc12,·,19.3,·,1.7
C[C@@H]1CN([C@H](C)CO)C(=O)c2cc(NS(=O)(=O)c3ccc(Cl)cc3)ccc2O[C@@H]1CN(C)S(=O)(=O)c1cccs1,4.9,-4.0,-0.0356,0.0
COc1ccc(CN(C)C[C@H]2Oc3ccc(NS(=O)(=O)c4cccs4)cc3CC(=O)N([C@@H](C)CO)C[C@@H]2C)cc1,·,3.0,0.664,0.4
Cc1noc(C)c1NC(=O)Nc1cccc2c1O[C@@H](CN(C)C(=O)NC(C)C)[C@@H](C)CN([C@@H](C)CO)C2=O,-27.0,8.7,0.0842,-0.1
COCc1nc2c([nH]1)c(=O)n(C)c(=O)n2CC(C)C,9.1,-0.7,0.0203,1.7

# One compound at a time, as listed above. Order of screens: Hedgehog inh | MITF inhib | YB-1 expr inh | PD-1 reverse act
# C[C@@H]1CN([C@@H](C)CO)C(=O)c2cc(NC(=O)CCCN(C)C)ccc2O[C@@H]1CN(C)S(=O)(=O)c1ccccc1 in the list: -8.5 | 4.4 | 0.083 | 1.1
# Cc1cc(C)n(CC(O)Cn2ccc3ccccc32)n1 (centres undefined) in the list: · | -21.2 | · | 1.4
# Cc1noc(C)c1NC(=O)Nc1cccc2c1O[C@@H](CN(C)C(=O)NC(C)C)[C@@H](C)CN([C@@H](C)CO)C2=O in the list: -27.0 | 8.7 | 0.0842 | -0.1
# C[C@@H]1CN([C@@H](C)CO)C(=O)c2cccc(NS(=O)(=O)c3ccc(F)cc3)c2O[C@H]1CN(C)S(=O)(=O)c1cccs1 in the list: 4.5 | 0.4 | -0.175 | ·

# Carrying on.
Compound,Hedgehog inh,MITF inhib,YB-1 expr inh,PD-1 reverse act
C[C@@H]1CN([C@H](C)CO)C(=O)c2cc(NC(=O)CCN3CCOCC3)ccc2O[C@@H]1CN(C)S(=O)(=O)c1ccccc1,-14.6,5.0,0.359,1.0
C[C@@H]1CN([C@H](C)CO)C(=O)c2cc(NC(=O)C3CC3)ccc2O[C@H]1CN(C)C(=O)Nc1ccccc1,-15.1,-1.4,-0.0344,0.8
C[C@@H]1CN([C@H](C)CO)C(=O)c2cc(NC(=O)Cc3cn(C)c4ccccc34)ccc2O[C@H]1CN(C)Cc1ccc(Cl)c(Cl)c1,9.2,47.0,0.4,0.2
C[C@@H]1CN([C@@H](C)CO)C(=O)c2cc(NC(=O)CCCN(C)C)ccc2O[C@H]1CN(C)S(=O)(=O)c1ccc(F)cc1,·,7.4,-0.0102,·
COc1ccc(CN(C)C[C@@H]2Oc3ccc(NS(=O)(=O)c4ccc(F)cc4)cc3CC(=O)N([C@@H](C)CO)C[C@@H]2C)cc1,8.9,3.5,-0.00873,·
C[C@H]1CN([C@@H](C)CO)C(=O)c2cc(NS(C)(=O)=O)ccc2O[C@@H]1CN(C)C(=O)Nc1ccccc1,·,0.9,-0.269,·
COc1ccc(C(=O)NCCn2cc(SC(C)c3ccccc3)c3ccccc32)cc1 (centres undefined),77.6*,20.3,0.053,-1.1
N#Cc1ccc(C(=O)Cn2cc(C(F)(F)F)ccc2=O)cc1,7.0,10.3,0.525,0.6
C[C@@H]1CCCCO[C@@H](CN(C)C(=O)Nc2ccccc2)[C@@H](C)CN([C@H](C)CO)C(=O)c2cc(NC(=O)c3ccccc3)ccc2O1,·,9.3,-12.6,·
COCCNC(=O)c1ccccc1NC(=O)c1ccccc1OC,·,2.7,·,2.5
C[C@@H]1CN([C@H](C)CO)C(=O)c2cccc(N(C)C)c2O[C@H]1CN(C)C(=O)NC1CCCCC1,-34.8,-3.7,-0.255,·
C[C@@H]1CN([C@H](C)CO)C(=O)Cc2cc(NC(=O)Nc3ccc(F)cc3)ccc2O[C@@H]1CN(C)C(=O)NC1CCCCC1,-21.5,5.1,-0.236,0.7
CC(C)NC(=O)Nc1ccc2c(c1)C(=O)N([C@H](C)CO)C[C@H](C)[C@@H](CN(C)S(=O)(=O)c1ccc(F)cc1)O2,·,9.6,-0.0885,0.8
C[C@H](CO)N1C[C@H](C)[C@H](CN(C)Cc2ccncc2)Oc2ccc(NS(=O)(=O)c3ccccc3)cc2CC1=O,53.5,-13.3,0.118,1.2
Cc1noc(C)c1NC(=O)N(C)C[C@@H]1Oc2ccc(N(C)C)cc2CC(=O)N([C@H](C)CO)C[C@H]1C,-22.0,-5.7,-0.0293,0.1
C[C@@H]1CN([C@@H](C)CO)C(=O)c2cc(NS(=O)(=O)c3cn(C)cn3)ccc2O[C@H]1CN(C)S(=O)(=O)c1ccc(Cl)cc1,·,7.7,0.025,1.5
Cc1noc(C)c1S(=O)(=O)Nc1ccc2c(c1)C(=O)N([C@@H](C)CO)C[C@H](C)[C@@H](CN(C)S(=O)(=O)c1ccc(Cl)cc1)O2,-3.7,-1.6,-0.328,0.8
CCN1/C(=C/C2=CC(=O)CC(C)(C)C2)Sc2ccccc21,81.6*,49.3,0.215,-1.5
CC(C)NC(=O)Nc1ccc2c(c1)C(=O)N([C@@H](C)CO)C[C@@H](C)[C@H](CN(C)C(=O)Nc1cccc3ccccc13)O2,-16.0,-3.4,0.581,·
Cc1ccc(S(=O)(=O)N(C)C[C@@H]2Oc3ccc(NC(=O)CCC(F)(F)F)cc3C(=O)N([C@@H](C)CO)C[C@H]2C)cc1,·,3.3,0.197,-1.1
C[C@@H]1CN([C@H](C)CO)C(=O)c2cccc(NC(=O)Nc3ccc4c(c3)OCO4)c2O[C@H]1CN(C)Cc1ccccc1,14.9,18.2,-0.178,-3.3
COc1nnc(-c2ccc(N3CCOCC3)c(NS(=O)(=O)c3ccc(Cl)cc3)c2)c2ccccc12,·,10.1,·,0.3
Cc1ccc(S(=O)(=O)Nc2cccc3c2O[C@@H](CN(C)C(=O)Nc2ccccc2)[C@@H](C)CN([C@@H](C)CO)C3=O)cc1,-17.5,-4.2,-0.149,-0.6
C[C@H]1CN([C@@H](C)CO)C(=O)c2cccc(NC(=O)Nc3ccc4c(c3)OCO4)c2O[C@@H]1CN(C)Cc1ccc(C(=O)Nc2ccccc2N)cc1,·,3.0,-0.544,-4.0
CSc1sc(-c2nc(C(C)(C)C)cs2)c2c1C(=O)CCC2,14.1,-6.2,-0.278,-0.3
CC(C)NC(=O)N(C)C[C@@H]1Oc2ccc(NC(=O)Cc3cn(C)c4ccccc34)cc2C(=O)N([C@H](C)CO)C[C@@H]1C,25.5,3.7,-0.0484,-0.4
Cc1noc(C)c1NC(=O)Nc1ccc2c(c1)C(=O)N([C@H](C)CO)C[C@H](C)[C@H](CN(C)C(=O)Nc1ccc3c(c1)OCO3)O2,16.5,-16.5,0.19,-0.4
C[C@@H]1CN([C@@H](C)CO)C(=O)c2cccc(NC(=O)c3ccncc3)c2O[C@@H]1CN(C)Cc1ccc(C(=O)O)cc1,-32.5,-14.0,0.0131,1.6
Cc1ccc(C(=O)CSc2nc3sc(C)c(C)c3c(=O)[nH]2)cc1,·,-3.0,·,-0.8
C[C@@H]1CN([C@@H](C)CO)C(=O)c2cc(NS(C)(=O)=O)ccc2O[C@@H]1CN(C)S(=O)(=O)c1ccccc1,-6.6,3.0,-0.165,0.1

# Next results
Compound,Hedgehog inh,MITF inhib,YB-1 expr inh,PD-1 reverse act
CNC[C@H]1Oc2ccc(NC(=O)C3CCCCC3)cc2CC(=O)N([C@@H](C)CO)C[C@H]1C,-19.9,-10.5,-0.34,·
O=C(CSc1nc2ccccc2c(=O)[nH]1)Nc1ccc(Cl)cc1Cl,·,14.3,·,-1.5
Cc1noc(C)c1NC(=O)Nc1cccc2c1O[C@@H](CN(C)Cc1ccc(Cl)c(Cl)c1)[C@H](C)CN([C@H](C)CO)C2=O,14.6,1.0,0.116,·
CNC[C@@H]1Oc2c(NC(=O)C3CCOCC3)cccc2C(=O)N([C@H](C)CO)C[C@@H]1C,-2.3,-0.7,1.31,1.3
C[C@H]1CN([C@@H](C)CO)C(=O)c2cccc(NC(=O)C3CCOCC3)c2O[C@@H]1CN(C)C(=O)Nc1ccccc1,-8.0,-10.8,-0.614,1.2
COC(=O)CCC(=O)Nc1cc([N+](=O)[O-])ccc1OC,·,3.7,·,2.5
C[C@H]1CN([C@@H](C)CO)C(=O)c2cccc(NC(=O)NC3CCCCC3)c2O[C@H]1CN(C)S(=O)(=O)c1ccc(Cl)cc1,112.3*,63.3,0.513,-7.4
CC(C)c1cccc2c1OC(C(C)C)C(=S)N2CC(=O)O (centres undefined),-4.4,-9.1,0.032,0.0
CC1(C)S[C@@H]2[C@H](NC(=O)C3(N)CCCCC3)C(=O)N2[C@H]1C(=O)O,-90.5,-21.7,-0.502,·
OC[C@H]1O[C@@H](OC(CCCCc2ccc(O)cc2)CCc2ccc(O)cc2)[C@H](O)[C@@H](O)[C@@H]1O (some centres undefined),-1.4,·,-0.297,·
